Assay outcomes as filed in PubChem.
Mtb betalactam: beta-lactam sensitization of Mtb H37Rv, H37Rv. M. tuberculosis H37Rv growth with meropenem, percent inhibition; hits of this screen are not shown here. inhibition, % at 25 µM. 330,000 tested, 0.27% active. AID 434955, 2010;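 active = about 74% or more and at least 40 points above the plate without the antibiotic, then above 30% in a dose series; inconclusive = first-round hits that could not be retested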;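 note: growth measured after seven days incubation then overnight dye step; 0% = bacteria only wells and 100% = bacteria with antibiotic; twin plates without the antibiotic show which effects depend on it; some results filed as inactive read as strong as hits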
Starred values were filed as active, the others as inactive; ? = inconclusive. This is a subset; rates above refer to the full screens.

No.	mol	Mtb betalactam
1	Cc1ccc(C(=O)CN(CCC(=O)O)S(=O)(=O)c2ccc([N+](=O)[O-])cc2)cc1	2.9
2	CCN(c1ccccc1)S(=O)(=O)c1ccc(C(=O)NCC(=O)Nc2ccc(F)c(F)c2F)cc1	-4.7
3	Cc1ccccc1-c1nnn(Cc2cccc(S(=O)(=O)N3CCOCC3)c2)n1	1.8
4	COc1cc(/C=C/C(=O)OCC(=O)N(C)CC(=O)Nc2ccc(F)cc2)ccc1OC(F)F	0.5
5	COc1ccccc1C(=O)NC(=O)COC(=O)c1nccnc1N	-8.6
6	Cc1cc(C)c2nc(N3C(=O)C(O)=C(C(=O)c4ccco4)C3c3cccc(O)c3)sc2c1 (centres undefined)	-5.0
7	Cc1noc(C)c1C(=O)OCC(=O)NCCc1ccc(S(N)(=O)=O)cc1	-6.3
8	Cc1c(NC(=O)c2ccc(NS(=O)(=O)c3ccc(F)c(F)c3)cc2)c(=O)n(-c2ccccc2)n1C	-1.2
9	O=C(Cn1cnc2c(NC(=O)OCc3ccccc3)ncnc21)NCc1ccccn1	-8.3
10	CC(Oc1ccccc1F)c1nnc(SCC(=O)Nc2ccc(N3CCOCC3)cc2)o1 (centres undefined)	-0.1
11	O=NN(CCCl)C(=O)NCCCl	-2.6
12	Cc1noc(C)c1C(=O)Nc1cccc(S(=O)(=O)N2CCOCC2)c1	-11.9
13	O=c1cc(-c2ccsc2)oc2ccc(-c3ccc4cc[nH]c4c3)cc12	6.2
14	CC(=O)c1ccc(N(CC(=O)NC2CCS(=O)(=O)C2)S(=O)(=O)c2ccc(C)cc2)cc1 (centres undefined)	-9.3
15	Cc1ccc(S(=O)(=O)N2[C@@H](c3ccc(C(C)C)cc3)C(C(=O)O)=C[C@H]2C(C)(C)C)cc1	3.5
16	COc1ccc(Cl)cc1NC(=O)COc1ccc(S(=O)(=O)N2CCOCC2)cc1C	4.7
17	O=C(CN1C(=O)C2CC=CCC2C1=O)Nc1nc(-c2ccc(F)cc2)cs1 (centres undefined)	5.0
18	O=C(NCc1ccccc1F)c1ccc(S(=O)(=O)N2CCCCCC2)cc1	3.5
19	CC[C@]12c3[nH]c4ccccc4c3CCN1C(=O)C(CC(=O)NCC13CC4CC(CC(C4)C1)C3)C[C@@H]2C(=O)N1CCN(C(=O)c2ccco2)CC1 (some centres undefined)	78.5
20	O=C(C[C@H]1C/C=C\CCC(=O)OC[C@H]2CCCN2C1=O)NCCO	-4.5
21	CN(CC(=O)Nc1cccc(S(=O)(=O)NC2=NCCC2)c1)Cc1ccccc1Cl	-7.4
22	COc1ccc(CC(=O)Nc2ccc(S(=O)(=O)N(C)C3CCN(C)CC3)cc2)cc1	-3.1
23	CCOc1ccccc1CNn1cnnc1	-0.3
24	O=C(OC1CCOC1=O)c1ccc(Cl)c(S(=O)(=O)N2CCOCC2)c1 (centres undefined)	-2.1
25	CC(C)CCN(C(=O)c1ccccn1)c1c(N)n(Cc2ccccc2)c(=O)[nH]c1=O	-7.3
26	NS(=O)(=O)c1cccc(NC(=O)COC(=O)Cc2n[nH]c(=O)c3ccccc23)c1	-10.5
27	CN(CC(=O)Nc1cccc(Cl)c1)C1=NS(=O)(=O)c2ccccc21	-2.9
28	CCC1(c2ccccc2)NC(=O)N(C)C1=O (centres undefined)	-1.8
29	COc1ccc(C(C)(C)C)cc1NC(=O)COC(=O)CN1C(=O)NC2(CCCCC2C)C1=O (centres undefined)	5.7
30	COc1ccc(O)c(C(=O)c2cnn(C(=O)c3cccc(S(=O)(=O)N(C)C)c3)c2)c1	3.1
31	CCOc1cc(C#N)ccc1OCC(=O)N1CCN(C(=O)c2cccs2)CC1	3.1
32	COc1ccc(OCC(=O)NC2CCSc3ccccc32)cc1 (centres undefined)	-10.5
33	COc1ccc(N(Cc2ccccc2)C(=O)OC(C)(C)C)c(C(=O)N(C)OC)c1	-6.1
34	CCc1nc2nc(C)c(NS(=O)(=O)c3ccc4c(c3)CCCC4)c(=O)n2[nH]1	1.3
35	C=CCn1c(=S)[nH]c2cc(C(=O)NCCc3ccc(S(N)(=O)=O)cc3)ccc2c1=O	5.0
36	Cc1c(NC(=O)c2ccc(S(=O)(=O)N(C)C)cc2)cccc1-n1cnnn1	0.5
37	C#CCOc1ccc2c3c(c(=O)oc2c1)CCCC3	-1.8
38	NC(=O)Cc1ccc(C(=O)CSc2nnc(-c3ccncc3)n2C2CC2)s1	-1.9
39	Cc1nc2cc(NC(=O)c3ccco3)ccc2n1C	-10.5
40	O=C(OCc1ccccc1)c1ccccc1O	-2.4

Quoted from the listing:
In Mtb betalactam, COc1ccc(CC(=O)Nc2ccc(S(=O)(=O)N(C)C3CCN(C)CC3)cc2)cc1 has -3.1
In Mtb betalactam, O=C(OCc1ccccc1)c1ccccc1O has -2.4

Of the compounds above, 3 have a furan ring, fused or not:
No.	mol	Mtb betalactam
6	Cc1cc(C)c2nc(N3C(=O)C(O)=C(C(=O)c4ccco4)C3c3cccc(O)c3)sc2c1 (centres undefined)	-5.0
19	CC[C@]12c3[nH]c4ccccc4c3CCN1C(=O)C(CC(=O)NCC13CC4CC(CC(C4)C1)C3)C[C@@H]2C(=O)N1CCN(C(=O)c2ccco2)CC1 (some centres undefined)	78.5
39	Cc1nc2cc(NC(=O)c3ccco3)ccc2n1C	-10.5

Next entries.
No.	mol	Mtb betalactam
41	COc1ccc2sc(-c3ccc(S(C)(=O)=O)cc3)c(C(=O)NCCCN3CCCC3=O)c2c1	4.9
42	Cn1cccc1C(=O)NC(=O)COC(=O)c1ccc(S(C)(=O)=O)cc1	0.5
43	CCC1(c2ccccc2)NC(=O)N(CC(=O)Nc2cc(Cl)ccc2N2CCN(C)CC2)C1=O (centres undefined)	1.9
44	COc1ccccc1-n1nnnc1SCC(=O)N(C)C1CCS(=O)(=O)C1 (centres undefined)	4.6
45	Cc1ccc(NC(=O)c2ccc3c(c2)CCN3S(C)(=O)=O)cc1C	-12.0
46	COC(=O)C1=C(c2ccc(F)cc2OCc2ccccc2)C[C@@H]2CC[C@H]1N2C	-5.8
47	C[C@@H]1[C@H](O)C[C@@]23COC(=O)C2=CCC[C@@H]3[C@@]1(C)CC/C(=C/CO)CO	-2.8
48	CCc1ccc(NC(=O)Cn2cnc([N+](=O)[O-])c2)cc1	-12.8
49	Cc1cccc(C)c1NC(=O)CNC(=O)CNC(=O)Cc1cccc2ccccc12	-6.2
50	COc1ccc(S(=O)(=O)N2CCOCC2)cc1NC(=O)COC(=O)C1CC1C (centres undefined)	1.9
51	COc1cc(/C=C/C(=O)OCC(=O)NC2CCCCCCC2)ccc1O	65.3
52	COc1ccc(N(CC(=O)NC2CCCC2)C(=O)CCC(=O)Nc2nc(C)cs2)cc1OC	1.7
53	Cc1cc(Cn2nc(C(=O)NCc3cccc(Br)c3)cc2-c2ccccc2)on1	32.6
54	CC(=O)c1cccc(NC(=O)c2ccc(S(=O)(=O)N3CC(C)OC(C)C3)cc2)c1 (centres undefined)	7.3
55	COc1ccc(S(N)(=O)=O)cc1C(=O)OCC1CCCCC1	1.6
56	COc1ccc(S(=O)(=O)N2CCc3ccccc32)cc1OC	8.6
57	Cc1cc(C)cc(OCC(=O)Nc2cccc(S(=O)(=O)NC3=NCCC3)c2)c1	-5.7
58	O=C1C=C(c2cc(C(F)(F)F)cc(C(F)(F)F)c2)C[C@@H](c2ccc(Cl)cc2)C1	8.2
59	COc1ccc(C(NC(=O)CN2C(=O)NC3(CCc4ccccc43)C2=O)c2ccccc2)cc1 (centres undefined)	12.9
60	O=C1C=C(c2cccc3c2sc2ccccc23)C[C@@H](c2ccc(Cl)cc2)C1	10.5
61	O=C(c1cnccn1)N1CCN(S(=O)(=O)c2cccc(Cl)c2)CC1	2.0
62	CC(Nc1cccc(C(=O)NC2CC2)c1)c1nnc(-c2ccccc2)o1 (centres undefined)	0.7
63	CC1CCCC(=NNC(=O)C2COc3ccccc3O2)C1 (centres undefined)	-0.6
64	COc1ccc(SC[C@H](C)CN2CC[C@H](C)CCC2=O)cc1	1.7
65	C[C@H](NS(=O)(=O)c1c(Cl)cccc1Cl)C(=O)NNC(=O)COc1ccccc1F	-2.2
66	O=C(CCNC(=O)N1C[C@H]2C[C@@H](C1)c1cccc(=O)n1C2)Nc1cccc(Cl)c1	-6.4
67	COc1ccccc1NC(=O)C1CCN(S(=O)(=O)c2cccc3nonc23)CC1	-4.4
68	CCN(CC(=O)NCc1ccc(Cl)cc1)C(=O)c1c(C)noc1C	-4.7
69	COc1cc(/C=C(\C#N)C(=O)NCC2CCCO2)ccc1OC(=O)c1ccco1 (centres undefined)	54.5
70	OC1CCCCC1	-0.4
71	O=C(COc1ccc(F)cc1Cl)Nc1cccc(S(=O)(=O)N2CCCCCC2)c1	-5.6
72	CC(=O)Nc1ccc(S(=O)(=O)N(C)CC(=O)NNc2c(F)c(F)cc(F)c2F)cc1	-6.9
73	COc1ccc(OC)c(/C=C/C(=O)N2CCN(S(=O)(=O)c3cc(C)ccc3C)CC2)c1	4.6
74	CC(=O)Nc1ccc(C)cc1	3.2
75	Cc1nc2nc(C)c(NS(=O)(=O)c3ccc(Cl)s3)c(=O)n2[nH]1	-1.4
76	CC(=O)c1cccc(S(=O)(=O)NC(C)C2CC3CCC2C3)c1 (centres undefined)	-1.4
77	CN(CC(=O)NCCCn1ccnc1)S(=O)(=O)c1ccc(Cl)cc1	-2.4
78	NS(=O)(=O)c1ccc(CNC(=O)c2ccc3c(c2)OCO3)cc1	-9.2
79	O=C(CSc1nnnn1-c1ccccc1)NCCCN1CCCC1=O	-10.8
80	O=C(COC(=O)c1cc(S(=O)(=O)N2CCCC2)ccc1O)NCCc1ccccc1	-1.5

3 entries out of the list, arranged by count of non-hydrogen atoms, low to high:
No.	mol	Mtb betalactam
78	NS(=O)(=O)c1ccc(CNC(=O)c2ccc3c(c2)OCO3)cc1	-9.2
67	COc1ccccc1NC(=O)C1CCN(S(=O)(=O)c2cccc3nonc23)CC1	-4.4
72	CC(=O)Nc1ccc(S(=O)(=O)N(C)CC(=O)NNc2c(F)c(F)cc(F)c2F)cc1	-6.9

(cont.)
No.	mol	Mtb betalactam
81	O=C1CCCN1c1ccc(N2CCCC2=O)cc1	-9.2
82	O=C1CC2(CCCC2)C(=O)N1CN1CCN(S(=O)(=O)c2ccc(Cl)c(Cl)c2)CC1	3.9
83	CC1CCCCC1NC(=O)C(C)N1C(=O)c2ccccc2C1=O (centres undefined)	0.6
84	CC(C)(C)OC(=O)N1CCC(NC(=O)c2nc[nH]c2C(=O)N2CCc3ccccc3C2)CC1	7.0
85	COc1ccc(C(=O)NCC(=O)OCC(=O)NC(=O)c2ccc(C(C)(C)C)cc2)cc1OC	-9.2
86	COc1ccccc1NCC(=O)NN=C1CCS(=O)(=O)c2ccc(F)cc21	0.6
87	CCc1ccccc1Nc1nc(N)nc(COC(=O)CCC(=O)c2ccc(F)cc2)n1	2.1
88	C[C@H](NC(=O)c1ccco1)C(=O)N1CCN(c2ccc(C(F)(F)F)cn2)CC1	-5.0
89	Cc1ccc(NS(=O)(=O)c2ccc(C(C)C)cc2)cc1S(=O)(=O)N1CCOCC1	2.9
90	Cc1occc1C(=O)Nc1cccc(S(=O)(=O)N2CCOCC2)c1	-12.1
91	CSCCC(NS(=O)(=O)c1ccccc1F)C(=O)NCC(c1ccc(F)cc1)N1CCOCC1 (centres undefined)	-4.8
92	COc1ccc([C@H]2CC(=O)C=C(c3cc(C=O)ccc3OC)C2)cc1	28.2
93	NS(=O)(=O)c1ccc(CNC(=O)Cc2cccs2)cc1	2.8
94	O=C1C=C(c2ccc3c(c2)oc2ccccc23)C[C@@H](c2ccc3c(c2)OCO3)C1	59.0
95	O=C(NC(=S)N1CCCCCC1)c1cccc([N+](=O)[O-])c1	85.1
96	c1ccc2c(c1)CCc1c(-c3ccncc3)n[nH]c1-2	46.8
97	COc1ccc(Cc2nnc(NC(=O)Nc3ccc(F)cc3)s2)cc1	-7.0
98	O=C(CN1CCc2ccccc2C1)Nc1ccccc1C(=O)NC1CC1	-3.6
99	COc1cccc(CN(C)C(=O)CC2C(=O)NCCN2C2Cc3ccccc3C2)c1 (centres undefined)	?
100	C[C@H](CO)N1C[C@H](C)[C@@H](CN(C)Cc2ccc3c(c2)OCO3)Oc2c(NC(=O)C3CC3)cccc2C1=O	-5.6
101	CN(C(=O)COC(=O)CSc1ccc([N+](=O)[O-])cc1)c1ccccc1	74.6
102	COc1ccccc1C(=O)NCCC(=O)Nc1ccc(S(=O)(=O)Nc2ncccn2)cc1	-1.1
103	Cc1ccsc1CN(C)CC(=O)NCC(=O)Nc1ccc(F)c(F)c1F	-5.6
104	N#Cc1ccc(C(=O)N2CCN(C(=O)C3CCCO3)CC2)cc1 (centres undefined)	-1.6
105	COc1ccc(NC(=O)N(C)C[C@H]2Oc3ccc(NS(=O)(=O)c4ccc(F)cc4)cc3C(=O)N([C@H](C)CO)C[C@@H]2C)cc1	4.1
106	CC(C)C(NC(=O)c1ccccc1)C(=O)OCn1nnc2ccccc2c1=O (centres undefined)	-6.6
107	Cc1cc(C)c(C)c(S(=O)(=O)N2CCC(C(=O)NCCCN3CCOCC3)CC2)c1C	-3.5
108	COC(=O)[C@H](Cc1ccccc1)NC(=O)[C@@H](N)CC(=O)OCc1ccccc1	1.0
109	O=C(COC(=O)CNC(=O)c1cc(Cl)cc([N+](=O)[O-])c1)NC(=O)NCc1ccco1	0.5
110	NS(=O)(=O)c1ccc(NC(=O)c2ccc(S(=O)(=O)N3CCCCCC3)cc2)cc1	-1.5
111	COc1ccc(S(=O)(=O)N2CCCCC2)cc1NC(=O)C1CC(=O)N(Cc2ccco2)C1 (centres undefined)	-0.5
112	CCCCCc1c2c(cc(O)c1C(=O)O)OC(=O)c1cc(C(=O)CCCC)c(OC)cc1O2	1.3
113	C#CCOCCOCCOCCNc1nc(N2CCN(C(=O)[C@H](CCCCN)n3cc(CN)nn3)CC2)nc(N2CCN(C(=O)[C@H](CCCN=C(N)N)n3cc(C(N)[C@H](C)CC)nn3)CC2)n1 (some centres undefined)	2.4
114	COc1ccc(NC(C)=O)cc1S(=O)(=O)Nc1cccc(S(=O)(=O)NC2=NCCC2)c1	-4.2
115	COc1ccc2c(C(=O)c3ccc(C)cc3)n(Cc3ccc(C(N)=O)cc3)[n+]([O-])c2c1	2.7
